A488 fluor = qHTS Assay for Spectroscopic Profiling in A488 Spectral Region; compound autofluorescence, A488 spectral region, dye equivalency; hits give high values; max dye equivalency, M; actives 0.1% (n = 59,000); AID 591, 2007; active = above 10 nM dye equivalent; inconclusive = 1 to 10 nM; inactive = 1 nM or less; about half of its hits are not listed in these tables;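 note: highest value over a series up to 38 µM; compound alone in buffer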
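Readout is A488 dye-equivalent concentration, calibrated by a per-plate six-point Alexa 488 series. Compounds in 100 mM Tris buffer pH 8.0 were incubated 15 min at room temperature. Plates were imaged using 480 nm excitation/540 nm emission filters.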
Resorufin fluor = qHTS Assay for Spectroscopic Profiling in Resorufin Spectral Region; max dye-equivalent concentration, M; actives 0.04% (n = 59,000); Compound fluorescence, resorufin region 547/598 nm, buffer; hits give high values; AID 588, 2007; active = above 10 nM dye equivalent; inconclusive = 1 to 10 nM; inactive = 1 nM or less; a few of its hits are not listed in these tables; note: highest value over a series up to 38 µM
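Compounds in 100 mM Tris, pH 8.0, incubated 15 min at room temperature, then fluorescence read at 547 nm excitation/598 nm emission. Signal converted to dye-equivalent concentration via an on-plate six-point resorufin standard curve, per compound concentration.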
TSHR ag = qHTS Assay for Agonists of the Thyroid Stimulating Hormone Receptor; AID 926, 2007; Thyrotropin receptor (Homo sapiens), P16473; Potency, µM (series often up to 57.1 µM), inactives show at the highest dose activation, actives largely listed as activators; actives 0.48% (n = 73,000); HEK293-CNG-TSHR cells (CNG channel as cAMP sensor), membrane potential dye, cAMP; active = well fitted activation curve of enough size with the parental cells flat; inconclusive = any curve in the parental cells; inactive = parental cells flat and receptor cells flat or falling; note: potency is the fitted concentration of half-maximal effect; % of control where 0% means no effect; weak receptor curves with flat parental cells got no call and are not listed
Target sequence (P16473 whole entry, looked up): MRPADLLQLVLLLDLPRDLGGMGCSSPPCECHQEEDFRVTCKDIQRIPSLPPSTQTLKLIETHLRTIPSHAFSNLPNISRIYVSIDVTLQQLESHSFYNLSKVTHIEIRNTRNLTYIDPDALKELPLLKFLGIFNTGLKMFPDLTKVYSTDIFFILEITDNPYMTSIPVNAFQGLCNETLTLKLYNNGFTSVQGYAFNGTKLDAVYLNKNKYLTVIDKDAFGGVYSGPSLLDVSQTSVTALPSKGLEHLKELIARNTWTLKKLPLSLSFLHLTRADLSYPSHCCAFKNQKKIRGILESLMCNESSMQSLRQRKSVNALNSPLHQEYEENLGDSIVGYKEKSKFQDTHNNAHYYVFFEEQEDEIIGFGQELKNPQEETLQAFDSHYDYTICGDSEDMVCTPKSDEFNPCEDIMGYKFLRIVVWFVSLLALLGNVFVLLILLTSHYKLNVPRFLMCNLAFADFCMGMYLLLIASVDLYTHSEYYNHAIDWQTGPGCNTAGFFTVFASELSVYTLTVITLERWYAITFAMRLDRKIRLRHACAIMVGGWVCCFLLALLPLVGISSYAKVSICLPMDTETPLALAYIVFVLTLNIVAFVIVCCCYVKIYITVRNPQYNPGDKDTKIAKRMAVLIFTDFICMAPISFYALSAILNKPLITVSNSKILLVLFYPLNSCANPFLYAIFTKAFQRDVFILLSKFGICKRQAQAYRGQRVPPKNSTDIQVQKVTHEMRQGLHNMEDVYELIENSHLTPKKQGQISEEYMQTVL
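HEK 293 cells stably expressing TSHR and a cAMP-gated CNG channel; parental CNG-only cells as counterscreen. Cells preloaded 60 min with membrane potential dye plus 100 uM RO 20-1724, then compound 30 min; fluorescence read at 590 nm.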
AID923 = qHTS Assay for Allosteric/Competitive Inhibitors of Caspase-1: Spectroscopic Profiling in AFC Spectral Region; compound fluorescence, AFC spectral region (405/520 nm); almost no hit is shown here; Potency, µM (top dose mostly 57.5 µM), inactives show top-dose fluorescence increase, hits mostly activators; actives 1.1% (n = 75,000); AID 923, 2007; active = well fitted activation curve with a large enough effect; inconclusive = small, poorly fitted or top-dose-only effect;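 note: potency is the fitted concentration of half-maximal effect; 0% is about no effect; scaled to a free AFC standard on each plate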
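Baseline compound fluorescence (AFC region, 405 nm ex/520 nm em) taken from the intercept of kinetic reads with 50 nM caspase-1 and 5 uM Ac-WEHD-AFC; normalized to an on-plate AFC standard curve; compounds titrated up to 57 uM.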
A647 autofl = qHTS Assay for Spectroscopic Profiling in A647 Spectral Region. max dye-equivalent concentration, M. 59,000 tested, under 10 active. Compound fluorescence, A647 channel (570/671 nm), Tris buffer. AID 592, 2007; active means above 1 µM dye equivalent; inconclusive means 0.1 to 1 µM; inactive means 0.1 µM or less;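 note: values scaled relative to a standard on each plate; highest value over a series up to 38 µM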
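Buffer was dispensed, compounds and Alexa 647 standards were pin-transferred, and plates sat 15 min at room temperature. Intensity at 570/671 nm was then converted to dye-equivalent concentration using the plate's A647 standard curve.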
The depositor's hits bear a star; i = inactive; ? = inconclusive; nt = not tested or not shown; [ ] = another dose, or the depositor's remark.

Preview, 4 compounds:
SMILES,A488 fluor,Resorufin fluor,TSHR ag,AID923,A647 autofl
O=C(COC(=O)c1ccco1)Nc1nc2ccccc2s1,i,i,6%,1.4%,1.1e-09
CC(C(=O)N1CCCc2c1c(=O)oc1ccc(O)cc21)N1CCc2ccccc2C1 (centres undefined),i,i,0%,-2.9%,2.7e-09
CCC(NC(C)C)C(O)c1ccc(O)c(O)c1 (centres undefined),i,i,nt,nt,4e-08
O=C(Nc1cccc(F)c1)N1CC[C@@]2(CCCN(C(=O)c3cnccn3)C2)C1,i,i,5%,0.1%,1.9e-08

This part in full, from the start:
SMILES,A488 fluor,Resorufin fluor,TSHR ag,AID923,A647 autofl
O=C(COC(=O)c1ccco1)Nc1nc2ccccc2s1,i,i,6%,1.4%,1.1e-09
CC(C(=O)N1CCCc2c1c(=O)oc1ccc(O)cc21)N1CCc2ccccc2C1 (centres undefined),i,i,0%,-2.9%,2.7e-09
CCC(NC(C)C)C(O)c1ccc(O)c(O)c1 (centres undefined),i,i,nt,nt,4e-08
O=C(Nc1cccc(F)c1)N1CC[C@@]2(CCCN(C(=O)c3cnccn3)C2)C1,i,i,5%,0.1%,1.9e-08
O=C(Nc1nnc(CC2=CCCCC2)s1)c1cccs1,i,i,-2%,-0.1%,3.2e-08
CCC(C)c1c(O)nc(SCc2ccccc2)[nH]c1=O (centres undefined),i,i,18%,-0.6%,4.8e-08
Cc1ccc(S(=O)(=O)N2CCN(S(=O)(=O)c3ccc4c(c3)OCCO4)CC2)cc1,i,i,-3%,-0.1%,4.3e-09
O=C(Nc1cnn(Cc2ccc(F)cc2)c1)c1cnccn1,i,i,-3%,1.1%,4e-09

Next entries
SMILES,A488 fluor,Resorufin fluor,TSHR ag,AID923,A647 autofl
COc1ccc(NC(=O)N(C2CCCCC2)C(C)c2cccnc2)c(OC)c1 (centres undefined),i,i,11%,-0.1%,1e-09
Cc1[nH]c2ccccc2c(=O)c1CN1CCCCC1,nt,nt,1%[11.4 µM],0.1%,nt
O=C1C2CCCN2C(c2ccccc2)N1c1ccc(F)cc1 (centres undefined),nt,nt,5%,-4.5%,nt
O=C(c1ccc(Cn2c(=O)[nH]c3ccccc3c2=O)cc1)N1CCN(c2ccccn2)CC1,nt,nt,2%,-2.0%,nt
COc1cccc(N2C(=O)N(c3ccccc3Cl)C3CS(=O)(=O)CC32)c1 (centres undefined),i,i,19%,-0.2%,1e-09
CCOC(=O)c1[nH]c(COC(=O)CCCOc2ccccc2)c(C(=O)OCC)c1C,i,i,?,12%,1e-09
CCOC(=O)C1[C@H]2C(=O)N(C(C)c3ccc(OC)cc3)C[C@]23C=C[C@H]1O3 (some centres undefined),i,i,?,1.8%,3.1e-09
COc1cccc(NC(=O)CC2(CC(=O)O)CCCC2)c1,i,i,nt,-1.5%,8.1e-09

Further entries
SMILES,A488 fluor,Resorufin fluor,TSHR ag,AID923,A647 autofl
CCOC(=O)C1=C(C)NC(=O)NC1c1ccc(N(C)C)cc1 (centres undefined),nt,nt,6%,3.1%,nt
COC(=O)N1CCC2(CCN(Cc3nccs3)CC2)CC1,i,i,0%,-0.7%,1e-09
CCOc1cc(C(=O)NC(C)COC)cc(OCC)c1OCC (centres undefined),nt,nt,-7%[11.4 µM],0.1%,nt
COC(=O)[C@@]1(Cc2ccccc2)[C@H]2c3cc(C(=O)N4CCCC4)n(Cc4ccccn4)c3C[C@H]2CN1C(=O)c1ccccc1,nt,nt,?,0.8%,nt
O=C(OCC(=O)N1CCN(c2ccccc2)CC1)c1ccc2ncsc2c1,i,i,nt,0.0%,8.2e-09
COc1ccc(C(C)=O)cc1COC(=O)Cc1n[nH]c(=O)c2ccccc12,i,i,3%,-2.4%,5.2e-09
OCc1ccccc1CNCc1ccccc1,i,i,11%,2.3%,5.4e-08
Cc1cccc2[nH]c3c(=O)n(CCN4CCNCC4)cnc3c12,i,i,-4%,1.6%,2.6e-09

(next part)
SMILES,A488 fluor,Resorufin fluor,TSHR ag,AID923,A647 autofl
Cn1c(=O)c2c(ncn2CC(=O)Nc2ccccc2Sc2ccccc2)n(C)c1=O,i,i,7%,-2.8%,3.6e-09
CC1CCN(C(=O)C2c3ccccc3C(=O)N3CCc4ccccc4C23)CC1 (centres undefined),i,i,?,-0.8%,1e-09
CC1=C(C(=O)OC(C)C)C(C2CC=CCC2)NC(=O)N1 (centres undefined),nt,nt,0%[11.4 µM],-1.6%,nt
Cn1cnnc1SCc1ccc(C#N)cc1Cl,nt,nt,6%[11.4 µM],-0.8%,nt
CCOC(=O)c1ccc(N2C(=O)c3n[nH]c(C)c3C2c2ccccn2)cc1 (centres undefined),nt,nt,7%,3.4%,nt
O=C(c1cccc(F)c1)N1CCC2(CCCN(c3ccccc3)C2)CC1,i,i,?,-1.4%,1.3e-08
Cc1ccc(N2CCN(c3cc(C)nc4c5c(C)cc(C)nc5nn34)CC2)cc1,i,i,9%,1.0%,2.8e-08
CC1CCN(CCCn2c(=S)[nH]c3ccc(N4CCOCC4)cc3c2=O)CC1,i,i,-19%,12%,1.7e-08

Next section.
SMILES,A488 fluor,Resorufin fluor,TSHR ag,AID923,A647 autofl
CCC(C)(C)n1nnnc1C(C(C)C)N1CCSCC1 (centres undefined),i,i,?,-0.7%,6.1e-09
C[C@H](NC(=O)OC(C)(C)C)c1nnc(SCC(N)=O)o1,i,i,0%,2.1%,1e-09
CCCn1c(-c2ccc(F)cc2)nc2c(NCCCN(CC)CC)nc(C)nc21,nt,nt,?,-0.3%,nt
C[C@@H](C(=O)O)c1ccc(N2Cc3ccccc3C2=O)cc1,i,i,-3%[25.6 µM],-0.8%[25.7 µM],1e-09
O=C(NCc1ccco1)C(c1cccs1)N(C(=O)C1COc2ccccc2O1)c1cccc(O)c1 (centres undefined),i,i,nt,1.4%,3.2e-09
CCCCN(CCO)CCCC,nt,nt,?,-3.0%,nt
O=C(Nc1ccc(Cl)cc1)N1CC=CCC1,nt,nt,0%,2.9%,nt
Nc1c(C(=O)NCc2ccco2)sc2nc(N3CCOCC3)c3c(c12)CCCC3,i,i,nt,nt,8.5e-09

A run of entries taken from the entries so far, as a working copy:
SMILES,A488 fluor,Resorufin fluor,TSHR ag,AID923,A647 autofl
CCC(C)(C)n1nnnc1C(C(C)C)N1CCSCC1 (centres undefined),i,i,?,-0.7%,6.1e-09
C[C@H](NC(=O)OC(C)(C)C)c1nnc(SCC(N)=O)o1,i,i,0%,2.1%,1e-09

Going on with the list.
SMILES,A488 fluor,Resorufin fluor,TSHR ag,AID923,A647 autofl
CC(=O)Nc1nc(=S)ss1,i,i,5%,0.9%,1e-09
O=C(CN1C(=O)COc2ccccc21)N1CCc2ccccc21,i,i,1%,1.5%,1e-09
Cc1ccc(S(=O)(=O)Nc2ccc(O)c(C(=O)O)c2)c(C)c1,nt,nt,2%,-0.6%,nt
COC(=O)c1ccccc1NC(=O)CSc1nnc(-c2ccncc2)o1,i,i,nt,nt,9.1e-08
O=C(NCc1ccc2c(c1)OCO2)c1ccc(C2SCC(=O)N2Cc2ccco2)cc1 (centres undefined),i,i,6%,-0.5%,1e-09
COc1ccc(CCNCc2csc3nc4ccccc4n23)cc1OC,i,i,nt,2.6%,9.6e-09
O=C(c1n[nH]c2c1CCCC2)n1ccnc1,i,i,4%,0.4%,4.8e-08
O=C(CCn1c(=S)[nH]c2ccccc2c1=O)NCC1CCCO1 (centres undefined),i,i,-5%,1.2%,1e-09

Following part:
SMILES,A488 fluor,Resorufin fluor,TSHR ag,AID923,A647 autofl
COc1ccccc1OCc1nnc(SCC(=O)N2CCCCC2)n1-c1ccccc1,i,i,9%,-0.2%,4.9e-09
COc1cc(-c2nnc(COC(=O)CSc3cc(C)c4ccccc4n3)o2)cc(OC)c1OC,i,i,6%,0.5%,3.8e-09
CCCn1nc(NS(=O)(=O)c2ccccc2)c2cc3ccccc3nc21,i,i,?,-0.8%,8.9e-09
COc1ccc(C(=O)N2CCC3(CCCN(c4ncccn4)C3)CC2)cc1,i,i,14%,-2.5%,1.4e-09
O=C(O)[C@H]1[C@H](C(=O)O)[C@H](C(=O)O)C[C@@H]1C(=O)O,i,i,1%[11.4 µM],2.0%[11.5 µM],2.4e-08
CCCc1nc(SCC(=O)Nc2cc(C)on2)c2ccccc2n1,i,i,8%,0.9%,1.4e-08
COc1ccc(OCc2nnc3n2N=C(c2ccc(Br)cc2)CS3)cc1,nt,nt,?,-1.2%,nt
COCC(=O)N(Cc1ccco1)c1nnc(C2CCOC2)s1 (centres undefined),i,i,1%,-1.4%,2.9e-08

Further structures.
SMILES,A488 fluor,Resorufin fluor,TSHR ag,AID923,A647 autofl
Cn1c(=O)n(Cc2ccco2)c(=N)c2c3c(sc21)CCC3,i,i,11%,1.5%,2.6e-09
CS(=O)(=O)N1CCC(C(=O)Nc2ccccc2Sc2ccccc2)CC1,i,i,7%,0.1%,1e-09
O=C(Cn1c(=O)n(CCC(=O)N2CCc3ccccc3C2)c(=O)c2ccccc21)NCC1CCCO1 (centres undefined),i,i,0%,0.4%,1.7e-08
COc1ccc(-c2ccc(-c3noc(-c4ccccc4)n3)c(OC)n2)cc1,i,i,28%,4.2%,2.9e-09
Cc1ccccc1Cn1c(=N)n(CC(=O)c2ccco2)c2ccccc21,i,i,25%,2.0%,1.7e-08
CCOC(=O)C1CCN(c2c(N3CCN(c4ccccc4OC)CC3)c(=O)c2=O)CC1,nt,nt,2%,1.1%,nt
CCOC(=O)C(C)Sc1nnc(-c2ccccc2O)n1-c1ccc(C)cc1 (centres undefined),i,i,?,-1.1%,1.4e-08
COC(=O)c1[nH]c2ccccc2c1NS(=O)(=O)c1ccc(OC)cc1OC,i,i,-3%,-2.2%,1e-09

(listing goes on)
SMILES,A488 fluor,Resorufin fluor,TSHR ag,AID923,A647 autofl
CC1CCN(CC(=O)Nc2ccccc2C#N)CC1,i,i,-17%,0.4%,1e-09
C[C@@H]1C[C@H](OC(=O)c2ccccc2O)CC(C)(C)C1,i,i,-5%[25.6 µM],-0.7%[25.7 µM],5.5e-08
CC(=O)OC[C@H]1O[C@@H](n2ncc(=O)[nH]c2=O)[C@H](OC(C)=O)[C@@H]1OC(C)=O,i,i,nt,nt,1e-09
O=C(NC1CCCCC1)C1CCCN1C(=O)NCc1ccccc1 (centres undefined),i,i,2%,-1.4%,1.6e-08
Cc1cc(C)n(-c2nc(NCC3CCCO3)c3c4c(sc3n2)COC(C)(C)C4)n1 (centres undefined),i,i,?,2.4%,2.4e-08
CC(NS(=O)(=O)c1ccc(OCC(=O)N2CCOCC2)c(Cl)c1)c1ccccc1 (centres undefined),i,i,-6%,-0.3%,1e-09
O=C(O)C[C@@H](C(=O)O)c1ccccc1[N+](=O)[O-],i,i,?,1.0%[11.5 µM],1e-09
COC(=O)c1c[nH]n2c(=O)c(Cc3ccc(F)cc3Cl)c(C)nc12,i,i,15%,-1.3%,3e-09
COc1ccccc1-c1nc(NCCNC(C)=O)c2ccccc2n1,i,i,6%,-2.3%,2.3e-08
COc1cccc(OC)c1C(=O)N1CCN(Cc2ccccc2C(F)(F)F)CC1,i,i,?,-0.2%,3.1e-08
Cn1c(=O)[nH]c(=O)c2c1nc(SCCN1CCCCC1)n2Cc1ccccc1,i,i,?,1.3%,1e-09

Screens as filed in PubChem.

A portion of the library; count on the stated rates, not on these rows.
